RecA splice inh = inhibitors of M. tuberculosis RecA intein splicing; cell-free RecA intein splicing, fluorescence; inhibition, %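 (about 9 µM by stock and volumes)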; AID 2221; P9WHJ3; 290,000 tested, 0.75% active; in the data active means inhibition above about 30%;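 further: 0% = vehicle wells and 100% = reference inhibitor control wells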
Target sequence (P9WHJ3 whole entry, looked up, canonical isoform): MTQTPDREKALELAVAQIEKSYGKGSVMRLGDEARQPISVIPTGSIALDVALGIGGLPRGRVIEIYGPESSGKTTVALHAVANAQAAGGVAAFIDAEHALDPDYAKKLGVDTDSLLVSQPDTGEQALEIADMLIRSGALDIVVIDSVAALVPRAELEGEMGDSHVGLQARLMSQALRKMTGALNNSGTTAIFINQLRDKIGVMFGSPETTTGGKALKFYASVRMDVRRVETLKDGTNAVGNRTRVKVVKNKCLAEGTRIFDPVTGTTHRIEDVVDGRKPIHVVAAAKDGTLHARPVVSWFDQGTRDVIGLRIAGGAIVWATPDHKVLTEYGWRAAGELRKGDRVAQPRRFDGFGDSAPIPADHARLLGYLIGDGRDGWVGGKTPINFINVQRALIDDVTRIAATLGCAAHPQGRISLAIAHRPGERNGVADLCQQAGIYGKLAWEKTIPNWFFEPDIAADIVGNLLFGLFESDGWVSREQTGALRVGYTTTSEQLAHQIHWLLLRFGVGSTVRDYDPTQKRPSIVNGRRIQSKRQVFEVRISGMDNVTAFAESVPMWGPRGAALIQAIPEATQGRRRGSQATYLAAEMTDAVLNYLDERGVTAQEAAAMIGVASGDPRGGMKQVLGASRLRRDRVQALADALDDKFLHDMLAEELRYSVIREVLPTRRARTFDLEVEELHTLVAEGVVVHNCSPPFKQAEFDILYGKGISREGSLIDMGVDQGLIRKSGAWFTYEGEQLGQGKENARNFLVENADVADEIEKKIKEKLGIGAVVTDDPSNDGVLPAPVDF
YopH inh = blocks Yersinia enterocolitica YopH tyrosine phosphatase; fluorescence Ex485/Em525; inhibition, %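 (about 10 µM by stock and volumes)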; 140,000 tested, 0.16% active; AID 898;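 active means inhibition of 50% or more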;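 further: controls were vehicle for no effect and minimum signal wells for full effect; inactives centre near -20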
Mtb betalactam = beta-lactam sensitization of Mtb H37Rv | 330,000 tested, 0.27% active | inhibition, % at 25 µM | M. tuberculosis H37Rv growth with meropenem, percent inhibition; hits of this screen are not shown here;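 active means about 74% or more and at least 40 points above the plate without the antibiotic, then above 30% in a dose series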;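 further: growth measured after seven days incubation then overnight dye step; 0% = bacteria only wells and 100% = bacteria with antibiotic; twin plates without the antibiotic show which effects depend on it; some results filed as inactive read as strong as hits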
Mtb H37Rv = M. tuberculosis H37Rv growth inhibitors, H37Rv strain (AID 1626) | M. tuberculosis H37Rv growth inhibition; higher % means a stronger effect | one-dose inhibition, % at 10 µM; IC50 in µM for titrated hits | 220,000 tested, 0.95% active;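 active means confirmed in a dose series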;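 further: bacteria incubated seven days before Alamar blue readout; 0% = bacteria only wells and 100% = bacteria with antibiotic wells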
Arbovirus inh = antivirals against arbovirus infection; arbovirus infection cell-based antiviral screen; inhibition, % at 10 µM; 200,000 tested, 0.37% active;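 active means inhibition from about 30%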;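 further: bluetongue infection of BSR cells; cell survival read as ATP light after 72 h; 0% = infected wells without compound and 100% = uninfected wells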
Arbovirus inh repeat = recorded beside Arbovirus inh, whose call it bears; inhibition, %; measured here: 10K subset replicate screen; many hits read low in the repeat;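 first of two repeat runs on a subset; 0% = infected and 100% = uninfected wells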
Numbers without * were called inactive; nt = no result given. This is a subset; rates above refer to the full screens.

SMILES	RecA splice inh	YopH inh	Mtb betalactam	Mtb H37Rv	Arbovirus inh	others
CCOC(=O)CNC(=O)CSc1nnc(-c2ccco2)n1N	-3.3	-35.6	-9.9	-6.3%	6.6
Cc1ccc(N2CN=C3SCC(=O)N3C2)cc1C	-0.2	nt	37.2	73.8%	6.1
O=C(CN1CCN(c2ccccn2)CC1)Nc1ccc([N+](=O)[O-])cc1C(=O)Nc1ccccc1F	-1.7	nt	-1.1	nt	nt
CCOC(=O)CC1COCCN1Cc1cn[nH]c1-c1ccc2c(c1)OCO2 (stereo not drawn)	0.7	nt	0.1	-1.9%	5.4
COC(=O)C1=C(C(=O)OC)[N+]2=C3N(C(=O)NC2(C)C)[C@H](CO)C[C@@]32c3ccccc3N(Cc3ccccc3)[C@@H]12	1.4	nt	-1.8	-2.8%	nt
Cc1cccc(NC(=O)N(C)Cc2cccs2)c1	2.5	-1.1	-7.2	2.5%	-6.2
CCCC(=O)NCC(c1cccs1)S(=O)(=O)c1ccc(Cl)cc1 (stereo not drawn)	1.5	nt	-9.9	nt	nt
CCCSc1sc(C(=O)OC)c(-c2cccs2)c1C#N	0.6	nt	1.9	12.0%	nt
CCOC(=O)C1CCCN(C(=O)CCNS(=O)(=O)c2cc(Br)cnc2N)C1 (stereo not drawn)	-3.3	nt	-3.2	nt	nt
CCCC(C)NC(=O)COc1ccc(Sc2ccc(OCC(=O)NC(C)CCC)cc2)cc1 (stereo not drawn)	3.0	-2.8	-2.1	4.2%	-4.1
Cc1ccc(C(=O)Nc2nnc(NC(=S)Nc3ccccc3)s2)cc1	-2.2	nt	47.4	9.3%	-6.0
CCCCOc1ccc(/C=c2\sc3ncnn3c2=O)cc1	26.7	-31.8	89.3	10.2%	9.5
COc1cc(Cl)c(S(=O)(=O)NCCCN2CCOCC2)cc1Cl	-3.3	-27.5	-13.6	-1.0%	-10.0
CC(CN1CCCC1)OC(=O)c1ccc(F)cc1 (stereo not drawn)	-2.6	nt	4.7	nt	nt
C=CCc1c(OC)ccc2c1c(S(=O)(=O)c1ccc(C)cc1)cn2COC	4.1	nt	2.6	nt	nt
O=C(CN1CCN(S(=O)(=O)c2ccc(Br)cc2)CC1)N/N=C/c1ccco1	0.7	-13.3	-5.7	2.5%	-9.1
Cc1cccc(C(=O)NNC(=O)CSc2nnc(C3CC3)n2C)c1	-1.6	nt	-9.7	nt	nt
O=C(Oc1ccc(-c2cnc3ccccc3n2)cc1)c1ccc(Cl)c([N+](=O)[O-])c1	2.1	-38.7	99.3	5.25µM*	-4.0
CCOC(=O)c1c(C)[nH]c(C(=O)OCC(=O)N2c3ccccc3CC2C)c1C (stereo not drawn)	1.1	-35.9	4.7	-2.0%	3.3
O=C1c2cccc([N+](=O)[O-])c2C(=O)N1C1CCCCC1	-4.9	nt	1.4	nt	nt
O=C1CC(c2ccccc2)Sc2nc3ccccc3n21 (stereo not drawn)	-1.5	nt	5.1	-2.6%	14.6
Cc1ccc(NC(=O)Nc2ccc3c(c2)N(C)C(=O)CS3)cc1C	nt	-35.7	5.8	1.9%	2.0
O=C(O)C1C2C=CC(C2)C1C(=O)NC(c1ccccc1)c1ccccc1 (stereo not drawn)	-0.1	-14.8	nt	-5.6%	3.9
CS(=O)(=O)N1CCCC(C(=O)NCc2ccc(F)cc2Cl)C1 (stereo not drawn)	-1.6	-3.0	-2.4	-8.4%	5.8
CCCCC(=O)Nc1nc(C)c(-c2csc(Nc3ccccc3OC)n2)s1	3.6	-38.9	95.9	6.8%	-7.1
SMILES	RecA splice inh	YopH inh	Mtb betalactam	Mtb H37Rv	Arbovirus inh	others
COc1ccc(CCNS(=O)(=O)c2ccc(OC)cc2)cc1	-2.2	7.0	1.4	10.1%	5.8
Cc1ccccc1NC(=S)Nc1ccccc1	-0.2	nt	1.0	nt	nt
CCC(c1nnc(SCC(=O)Nc2ccc(NC(C)=O)cc2)n1Cc1ccccc1)N(C)C (stereo not drawn)	0.1	nt	-5.3	nt	nt
CCN(CC)C(=O)CSc1nc2ncccc2[nH]1	-3.9	-6.9	-16.4	-5.2%	3.4
CCCCCCc1ccc(N2C[C@H](Cc3ccccc3)[C@@H](CC(=O)Nc3ccccc3)C2=O)cc1	-4.1	nt	-4.1	nt	nt
Cc1c(NC(=O)c2cnn3cccnc23)c(=O)n(-c2ccccc2)n1C	-0.5	-0.7	-4.9	-6.3%	0.2
CC(=O)Nc1ccc(NC(=O)c2oc3cc(C)c(C)cc3c2C)cc1	nt	-37.8	1.6	-3.1%	2.8	Arbovirus inh repeat=-0.4
Cc1cccc(C(=O)Nc2sc(C(=O)N3CCCC3)c(C)c2C#N)c1	-1.2	-3.6	-3.3	-0.5%	0.5
CC(C)C(=O)Nc1ccc2c(c1)nc(CCN1CCN(c3ccccc3)CC1)n2C	-2.0	nt	-0.9	-7.5%	nt
COc1ccccc1-c1c(C(F)(F)F)oc2cc(OC(=O)c3ccc([N+](=O)[O-])cc3)ccc2c1=O	16.8	-2.5	8.7	5.4%	4.3
Cc1nc2ccccc2c(=O)n1NC(=O)COc1ccccc1	2.5	-30.2	4.0	-4.8%	2.1
CCOC(=O)C1CCCN(C(=O)Cc2c(C(=O)O)[nH]c3ccccc23)C1 (stereo not drawn)	0.5	-48.3	-0.2	-9.4%	9.1	Arbovirus inh repeat=-0.5
Cc1ccc(C)c(NC(=O)CN(C)C(=O)c2ccccc2Cc2ccccc2)c1	-2.4	nt	-11.3	nt	nt
Cc1nnc(NCCN2CCOCC2)[nH]c1=O	0.5	7.0	-7.3	-5.8%	10.4
COc1ccc(/C=C(/C#N)C(=O)Nc2cccc(C)c2C)cc1C(=O)O	1.2	-17.6	-18.1	-1.4%	1.1
CC(=O)c1ccccc1OCCCOc1cccc2cccnc12	0.2	nt	4.2	nt	nt
CCCNC(=O)Cn1c(=O)oc2cc(S(=O)(=O)N3CC(C)CC(C)C3)ccc21 (stereo not drawn)	-1.3	nt	-5.1	nt	nt
Cn1ncc(Cl)c1C(=O)NC1C2CC3CC(C2)CC1C3 (stereo not drawn)	0.7	nt	-6.3	10.2%	17.2
Cc1cc2n(n1)C(c1ccsc1)Nc1ccccc1-2 (stereo not drawn)	4.4	-20.4	3.4	-2.8%	-1.6
COc1ccc(-c2[nH]ncc2/C=N\NC(=O)c2ccc(C(C)(C)C)cc2)cc1OC	2.0	-22.4	3.7	-3.9%	11.0
c1cncc(CNc2ncn[nH]2)c1	5.9	nt	-0.1	-5.4%	nt
CCc1cccc(NS(=O)(=O)c2ccc(-n3cccn3)cc2)c1	4.1	nt	5.2	nt	nt
O=c1[nH]c(=S)n(Cc2ccc(F)cc2)c(O)c1C=NCc1cccnc1	-1.3	-10.0	12.2	-1.4%	15.2
CCOc1cc(C(=O)N(C)CC(=O)Nc2cccc(F)c2)ccc1OCC(=O)N1CCCCC1	-1.0	nt	-1.7	nt	nt
CCOc1ccccc1NC(=O)Cn1c(-c2ccc(Cl)cc2)noc1=O	6.4	nt	-1.0	-5.3%	nt
SMILES	RecA splice inh	YopH inh	Mtb betalactam	Mtb H37Rv	Arbovirus inh	others
O=C(/C=C/c1ccccc1)N(Cc1ccc(Cl)cc1)C1CCS(=O)(=O)C1 (stereo not drawn)	-5.9	nt	-5.7	7.0%	nt
CCOC(=O)c1[nH]c2ccc(OC)cc2c1C	-0.1	-50.4	6.4	nt	2.2
CC(=O)Nc1ccc(S(=O)(=O)N2CCCCC2c2cccnc2)cc1 (stereo not drawn)	nt	-53.4	-3.4	-2.5%	-1.4
CC(=O)NCCn1c(SCC(=O)Nc2ccc(C)cc2)nc2ccccc2c1=O	-1.4	nt	3.0	-2.8%	-1.0
S=C(Nc1ccc2snnc2c1)N1CCN(c2ccccn2)CC1	3.3	2.4	-0.5	nt	-0.5
COc1ccc(C)cc1NC(=O)c1nn(-c2ccccc2)cc1OC	4.7	nt	3.9	nt	nt
CC1CCN(C(=O)CN(Cc2ccc(F)cc2)S(C)(=O)=O)CC1	-1.5	nt	3.0	nt	nt
C/C(=N\O)C(=O)NCCCNCCCN(C)C	-0.9	-10.3	-3.4	3.5%	6.2
O=S(=O)(NCc1ccccc1Cl)c1cccs1	-1.4	nt	-3.7	12.4%	2.0
COc1cc(Br)c(C(C)NC(=O)c2ccc(C)cc2)cc1OC (stereo not drawn)	-0.3	-42.6	-5.0	-7.5%	3.7
COc1cc(OC)c2c(O)c3c(c(-c4c5c(c(O)c6c(OC)cc(OC)cc46)CO[C@@H](C)[C@H]5O)c2c1)[C@H](O)[C@H](C)OC3	3.4	nt	-1.6	-4.5%	11.6
CC(C)c1ccc(C(C(=O)NC(C)(C)C)N(C(=O)CNC(=O)c2ccco2)c2cccnc2)cc1 (stereo not drawn)	0.6	12.8	-13.3	7.5%	-2.5
O=C(N/N=C/c1c(O)n(-c2ccccc2Cl)c(=O)c2ccccc12)c1cccnc1	-56.6	nt	nt	5.0%	35.9*
NC(=O)CC(NC(=O)Cc1ccc(Br)cc1)c1ccc(NC2CCN(Cc3ccccc3)CC2)c([N+](=O)[O-])c1 (stereo not drawn)	2.2	nt	-2.3	nt	nt
Cc1ccc2nc(-c3ccccn3)oc2c1	-3.7	-27.0	-6.0	-1.2%	-2.2
CCOC(=O)C(C(=O)NCc1cccc(OC)c1)c1ncc(C(F)(F)F)cc1Cl (stereo not drawn)	0.8	-15.1	2.8	7.6%	3.3
C1CCCN(c2nc3nonc3nc2N2CCCCCC2)CC1	0.2	nt	-1.4	-2.4%	0.5
CCN(CC)C(=S)Nc1ccc(OC)cc1	-3.8	-24.9	-8.5	1.1%	-8.8
CCNC(=O)N1CCCC(C(=O)c2ccc3cc(OC)ccc3c2)C1 (stereo not drawn)	2.1	nt	0.2	-5.2%	-8.5
COc1ccc(N(C(=O)c2snc(C(N)=O)c2N)C(C(=O)NC2CCCCC2)c2ccc(C)o2)cc1 (stereo not drawn)	14.1	nt	-5.4	nt	nt
Cc1cccc2c1Sc1ccc(Cl)cc1CC2N1CCNCC1 (stereo not drawn)	7.1	nt	100.0	nt	nt
Cc1ccc(Cn2c(=O)n(C)c(=O)c3sccc32)cc1	0.6	nt	0.0	nt	nt

Among those listed so far, 15 have an aryl methoxy group:
SMILES	RecA splice inh	YopH inh	Mtb betalactam	Mtb H37Rv	Arbovirus inh	others
COc1cc(Cl)c(S(=O)(=O)NCCCN2CCOCC2)cc1Cl	-3.3	-27.5	-13.6	-1.0%	-10.0
C=CCc1c(OC)ccc2c1c(S(=O)(=O)c1ccc(C)cc1)cn2COC	4.1	nt	2.6	nt	nt
CCCCC(=O)Nc1nc(C)c(-c2csc(Nc3ccccc3OC)n2)s1	3.6	-38.9	95.9	6.8%	-7.1
COc1ccc(CCNS(=O)(=O)c2ccc(OC)cc2)cc1	-2.2	7.0	1.4	10.1%	5.8
COc1ccccc1-c1c(C(F)(F)F)oc2cc(OC(=O)c3ccc([N+](=O)[O-])cc3)ccc2c1=O	16.8	-2.5	8.7	5.4%	4.3
COc1ccc(/C=C(/C#N)C(=O)Nc2cccc(C)c2C)cc1C(=O)O	1.2	-17.6	-18.1	-1.4%	1.1
COc1ccc(-c2[nH]ncc2/C=N\NC(=O)c2ccc(C(C)(C)C)cc2)cc1OC	2.0	-22.4	3.7	-3.9%	11.0
CCOC(=O)c1[nH]c2ccc(OC)cc2c1C	-0.1	-50.4	6.4	nt	2.2
COc1ccc(C)cc1NC(=O)c1nn(-c2ccccc2)cc1OC	4.7	nt	3.9	nt	nt
COc1cc(Br)c(C(C)NC(=O)c2ccc(C)cc2)cc1OC (stereo not drawn)	-0.3	-42.6	-5.0	-7.5%	3.7
COc1cc(OC)c2c(O)c3c(c(-c4c5c(c(O)c6c(OC)cc(OC)cc46)CO[C@@H](C)[C@H]5O)c2c1)[C@H](O)[C@H](C)OC3	3.4	nt	-1.6	-4.5%	11.6
CCOC(=O)C(C(=O)NCc1cccc(OC)c1)c1ncc(C(F)(F)F)cc1Cl (stereo not drawn)	0.8	-15.1	2.8	7.6%	3.3
CCN(CC)C(=S)Nc1ccc(OC)cc1	-3.8	-24.9	-8.5	1.1%	-8.8
CCNC(=O)N1CCCC(C(=O)c2ccc3cc(OC)ccc3c2)C1 (stereo not drawn)	2.1	nt	0.2	-5.2%	-8.5
COc1ccc(N(C(=O)c2snc(C(N)=O)c2N)C(C(=O)NC2CCCCC2)c2ccc(C)o2)cc1 (stereo not drawn)	14.1	nt	-5.4	nt	nt

Reprinted at random: three records from the list.
SMILES	RecA splice inh	YopH inh	Mtb betalactam	Mtb H37Rv	Arbovirus inh	others
CCC(c1nnc(SCC(=O)Nc2ccc(NC(C)=O)cc2)n1Cc1ccccc1)N(C)C (stereo not drawn)	0.1	nt	-5.3	nt	nt
CC(CN1CCCC1)OC(=O)c1ccc(F)cc1 (stereo not drawn)	-2.6	nt	4.7	nt	nt
Cc1ccc(Cn2c(=O)n(C)c(=O)c3sccc32)cc1	0.6	nt	0.0	nt	nt

High-throughput results deposited in PubChem BioAssay by several laboratories.
